ugtP null kill = growth inhibition of S. aureus ugtP deletion strain; growth inhibition, % (concentration not given with the values); S. aureus RN4220 ugtP deletion, OD600 growth, 16 h; some inactives read as strong as hits; 0.54% of 330,000 active; AID 1259309;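 active = z-score under -3 and OD600 up to 0.15 on both plates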;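 note: plate controls were untreated wells for no effect and antibiotic for full effect; wells of about 80 µL received 100 nL stock; the first replicate is given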
Sa RN4220 lethal = kills Staphylococcus aureus RN4220; S. aureus RN4220 growth, OD600, 16 h; inhibition, % (concentration not given with the values); 0.33% of 330,000 active;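 active = z-score of -3 or lower and OD600 up to 0.18 on both plates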;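 note: plate controls were untreated cells for no effect and reference antibiotic for full effect; stock transfer was 100 nL into about 80 µL; one replicate is shown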
PrP 5UTR inh = suppresses PrP 5' UTR mRNA reporter expression. cell-based PrP 5' UTR mRNA reporter, plate reader. 0.35% of 340,000 active. AID 488862. inhibition, % (test concentration not listed);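 active = every replicate at 50% or more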;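 note: 0 = median of the neutral control wells; tested in H4 reporter cells; numbers are from one replicate; inactives centre near -14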
Bead autofluor = counter-screen for toxin protease inhibitors: compound fluorescence; 3.1% of 360,000 active; compound autofluorescence counterscreen, microsphere flow cytometry; stronger effect = higher value; fluorescence intensity (concentration not given with the values);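 active = at least 3 SD above the mean of all compounds, about 16000 in these data; inconclusive = too few beads counted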;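 note: 100 nL of 1 mM stock went into each well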
BJeLR viability = BJeLR cell viability loss; BJeLR (HRASV12) viability, CellTiter-Glo ATP luminescence, 48 h; reference of the scale not given here; inhibition, % (test concentration not listed); 0.17% of 300,000 active;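 active = replicate mean above 50%; inconclusive = above 50% but judged a plate artefact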;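 note: 50 nL library stock added to about 25 µL; numbers are from one replicate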
Mtb hypoxia inh = inhibitors of hypoxia-regulated fluorescent reporter in Mycobacterium tuberculosis. M. tuberculosis hypoxia-regulated fluorescent reporter, fluorescence. fluorescence inhibition, % (test concentration not listed). 0.1% of 300,000 active;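 active = 35 to 45% if threefold the growth effect, above 45% if 1.5-fold the growth effect; inactive = the rest, general growth blockers included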;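 note: wells of about 50 µL received 100 nL stock; 0% = vehicle wells and 100% = reference inhibitor wells; whole bacteria with a GFP reporter of the hypoxia response; strong numbers were not always called active; many hits fall short of the cut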
Mtb hypoxia inh growth = further read-out of Mtb hypoxia inh, marked with its call; growth inhibition, %; measured here: M. tuberculosis growth (absorbance);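 0% = vehicle and 100% = reference antibiotic; read after six days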
Starred values were filed as active, the others as inactive; ? = inconclusive; / = not tested or not shown; & = joins results of further samples. The order is random; 4% or so of the library scored in one or more.

SMILES	ugtP null kill	Sa RN4220 lethal	PrP 5UTR inh	Bead autofluor	BJeLR viability	Mtb hypoxia inh	Mtb hypoxia inh growth
O=C(CSC1=NC2(CCCCC2)N=C1c1ccccc1)Nc1ccc2c(c1)OCCO2	4	2.6	16	4359	-9	/	/
COCCn1c(C)cc(/C=C2/NC(=O)N(Cc3ccc(C)cc3)C2=O)c1C	5	4.6	-9	6503	-2	15	15
Cc1noc(C)c1COc1ccccc1C(=O)NNC(=O)c1ccccc1F	6	1.4	-13	3812	/	7	-1
COC(=O)Nc1ccc(S(=O)(=O)NC2CCS(=O)(=O)C2)cc1 (stereo not drawn)	2	1.8	-7	3734	-2	11	6
O=C(/C(=C/c1ccc(Cl)cc1)c1nc2ccccc2[nH]1)c1cccs1	/	/	-105	16724*	48	/	/
Cc1cccc(N2CCN(C(=O)CCNC(=O)Cn3ccc4ccccc4c3=O)CC2)c1C	4	5.2	-20	19164*	-2	2	10
COc1ccc(/C=N/n2c(C3CCCCC3)n[nH]c2=S)c(OC)c1	/	/	-11	3781	-4	/	/
COc1cc(C(=O)Oc2cccc(C=NNC(=O)c3cc(C)[nH]n3)c2)cc(OC)c1OC	7	4.2	/	/	/	3	-1
COC(=O)c1ccc(CN2CCC(n3nccc3NC(=O)C3CC3)CC2)cc1	0	-0.7	-14	6767	5	5	2
O=C(CSc1nc2nn(-c3ccccc3)c(=O)c-2c2n1CCCCC2)NCCCc1ccccc1	8	6.2	-15	3187	-17	-2	3
Cc1cccc(NC(=S)N2CCCC(c3nc4ccccc4[nH]3)C2)c1 (stereo not drawn)	4	2.0	-28	3976	-13	11	4
Cc1ccccc1C(=O)NC1CCN(CC(=O)Nc2ccccc2)CC1	3	3.6	4	/	1	21	7
CCC(CC)C(=O)NCc1ccc(Cl)cc1	2	7.7	-10	4085	0	15	13
CC(=O)c1ccc(N2CCN(C(=O)c3ccc4c(=O)n(-c5ccccc5)c(=O)[nH]c4c3)CC2)cc1	7	3.2	-7	22374*	13	-6	6
CC(C)(C)C(=O)NC(=S)Nc1ccccn1	2	4.2	-17	4612	0	7	7
O=C(N/N=C/c1ccco1)c1cc(Br)ccc1OCc1ccccc1	/	/	-15	2148	2	/	/
Cc1cccc(NC(=O)CSc2nc(C)c(CC(=O)c3ccc(Br)cc3)c(C)c2C#N)c1C	-8	-9.7	-9	2604	7	13	8
Cc1ccc(CN2C(=O)CC(Nc3ccc(N4CCOCC4)cc3)C2=O)cc1 (stereo not drawn)	6	4.3	-16	3886	-10	6	9
CCC(C)OC(=O)c1c(N)n(Cc2cccs2)c2nc3ccccc3nc12 (stereo not drawn)	-6	-4.5	-40	9312	-8	9	4
COc1ccc(CCC(=O)NCc2ccccc2Cl)cc1OC	1	-2.1	-27	3898	0	3	-4
O=C(O)c1ccccc1C=NNC(=S)NC1CCCCC1	4	14	/	/	/	0	-4
COc1cccc(N2CCN(C3CC(=O)N(c4ccc(Cl)c(Cl)c4)C3=O)CC2)c1 (stereo not drawn)	-8	4.4	-8	4291	1	3	6
O=Cc1ccc(OCC(=O)Nc2ccccc2-c2ccccc2)cc1	0	13	-15	4390	-6	3	5
CC(/C=N/n1c(-c2ccccc2)n[nH]c1=S)=C\c1ccco1	/	/	-16	7696	-7	/	/
Cc1ccc(-n2nc3c4c(cccc4c2=O)-c2ccccc2-3)cc1	3	2.1	-19	19852*	4	-1	-5

Sorted by length of the SMILES (largest number first): three of the compounds above
SMILES	ugtP null kill	Sa RN4220 lethal	PrP 5UTR inh	Bead autofluor	BJeLR viability	Mtb hypoxia inh	Mtb hypoxia inh growth
COC(=O)Nc1ccc(S(=O)(=O)NC2CCS(=O)(=O)C2)cc1 (stereo not drawn)	2	1.8	-7	3734	-2	11	6
COc1ccc(CCC(=O)NCc2ccccc2Cl)cc1OC	1	-2.1	-27	3898	0	3	-4
CCC(CC)C(=O)NCc1ccc(Cl)cc1	2	7.7	-10	4085	0	15	13

Of the compounds above, 2 contain a thiophene ring, fused or not:
SMILES	ugtP null kill	Sa RN4220 lethal	PrP 5UTR inh	Bead autofluor	BJeLR viability	Mtb hypoxia inh	Mtb hypoxia inh growth
O=C(/C(=C/c1ccc(Cl)cc1)c1nc2ccccc2[nH]1)c1cccs1	/	/	-105	16724*	48	/	/
CCC(C)OC(=O)c1c(N)n(Cc2cccs2)c2nc3ccccc3nc12 (stereo not drawn)	-6	-4.5	-40	9312	-8	9	4

(list continues)
SMILES	ugtP null kill	Sa RN4220 lethal	PrP 5UTR inh	Bead autofluor	BJeLR viability	Mtb hypoxia inh	Mtb hypoxia inh growth
CCCN=C1N/C(=C\c2ccco2)C(=O)N1c1ccccc1	/	/	-77	2965	-3	/	/
CCOC(=O)C1C(O)=CC(=O)CC1c1ccccc1 (stereo not drawn)	-5	-2.6	-13	4236	-10	0	1
C/C(=N\Nc1nc(N)cc(Cl)n1)c1ccc(F)cc1	/	/	-21	3208	4	/	/
Cc1nc(-c2ccccc2)sc1-c1nnc(C2CC2)o1	-5	1.0	-54	4079	-8	-4	0
COC(=O)C1=C(C)NC2=C(C(=O)CCC2)C1c1cccs1 (stereo not drawn)	12	-0.1	/	/	4	/	/
COc1cccc(N2CCN(C(=O)CC(NC(=O)c3ccccc3)c3ccccc3)CC2)c1 (stereo not drawn)	4	-1.6	-7	4101	/	25	14
Cc1c(CN2CCC(CO)(CCOc3ccccc3)CC2)c(=O)n(-c2ccccc2)n1C	1	4.6	-6	4751	0	8	6
CC(C)c1ccc(NS(=O)(=O)c2cccc3cccnc23)cc1	-12	12	-21	3543	8	-5	-2
O=C(NNC(=O)c1cccnc1)Nc1ccccc1	5	4.7	0	10051	-1	6	3
CC(C)(CC(=O)O)CC(=O)Nc1ccc(Oc2ccc(C(C)(C)C)cc2)nc1	8	8.7	/	/	-5	0	-2
COc1cc(C=NNC(=O)c2ccncc2)ccc1O	2&7	2.9&3.7	/	/	/	/	/
CN(C)S(=O)(=O)c1ccc2c(c1)c(=O)c(C(=O)N1CCOCC1)cn2C	-6	-4.8	-27	5871	-7	/	/
CCOCCCNC(=O)C(NC(=O)CC1NC(=O)NC1=O)c1ccc(Cl)cc1 (stereo not drawn)	2	1.3	-2	4147	/	0	5
CC(Oc1ccccc1)C(=O)Nc1ccc(S(=O)(=O)N2CCCC2)cc1 (stereo not drawn)	5	-3.1	-16	3792	3	-1	7
COc1ccc(-c2nnn(Cc3nc(N)nc(N4CCOCC4)n3)n2)cc1OC	-2	-11	-4	?	/	16	7
CCOC(=O)N1CCC(NC(=O)c2cnc3n(c2=O)CCS3)CC1	-2	-5.3	-9	4372	-9	3	3
CC(=O)OCC(=O)NCc1ccc2c(c1)OCO2	3	-15	-17	2410	-5	6	1
COc1ccccc1/C=C/C=c1\sc2nc(=O)c(Cc3ccccc3)nn2c1=O	/	/	-2	3321	-14	/	/
COC(=O)c1ccccc1NC(=O)CSc1ncccn1	-3	1.6	-18	5437	4	-5	3
Cc1ccc(C(=O)O)cc1NC(=O)c1ccc(Cn2nc(C)c(Cl)c2C)o1	-3	2.0	5	2533	3	4	13
O=C(CSc1nc2ncc(Cl)cc2[nH]1)N1CCOCC1	8	7.0	-26	3679	/	14	14
CC1=NN(c2ccc([N+](=O)[O-])cc2)C(=O)C1	8	16	-23	2868	/	9	3
CN(C)C(=O)COc1ccc(Br)cc1	1	-2.5	-6	8387	-9	0	13
COc1ccc(C(=O)NCC(=O)NN=C(C)/C=C/c2ccccc2)cc1OC	9	-1.6	/	/	/	-2	2
CC(C)C(=O)N(c1ccc2oc(=O)sc2c1)S(=O)(=O)c1cccs1	5	-12	1	4751	9	/	/

Only Bead autofluor and ugtP null kill (2 entries from above):
canonical_smiles,Bead autofluor,ugtP null kill
CC1=NN(c2ccc([N+](=O)[O-])cc2)C(=O)C1,2868,8
CN(C)C(=O)COc1ccc(Br)cc1,8387,1

Going on with the list:
SMILES	ugtP null kill	Sa RN4220 lethal	PrP 5UTR inh	Bead autofluor	BJeLR viability	Mtb hypoxia inh	Mtb hypoxia inh growth
CN(C(=O)c1ccc(NC(=O)Cc2ccc(NC(=O)C3CCCN(C(=O)c4ccccc4)C3)cc2)cc1)C1CC1 (stereo not drawn)	-1	4.8	-10	3295	/	1	10
CCOC(=O)N1CCN(c2nnnn2-c2ccccc2)CC1	7	0.4	-11	4219	5	/	/
N#Cc1cnn(Cc2ccc(Cl)cc2)c1N	1	1.1	6	10604	2	-2	7
Fc1cccc(Cl)c1CSc1nnc(COc2cccc3cccnc23)o1	14	9.0	-30	10947	5	4	0
O=C(Nc1nc2ccc3ccccc3c2s1)c1ccc(N2CCCCC2)c([N+](=O)[O-])c1	-28	5.9	9	2450	1	2	0
CC(CC(=O)Nc1ccccn1)=NNC(=O)c1ccccc1	0	8.0	/	/	/	5	10
COc1ccc(S(=O)(=O)Cc2ccc(C(=O)N3CC(C)CC(C)C3)o2)cc1 (stereo not drawn)	-14	2.1	-9	6197	-1	/	/
CC1CN(C(=O)[C@@H]2CCCN2S(=O)(=O)c2ccc(Cl)cc2)CC(C)O1 (stereo partly drawn)	1	2.1	85*	3921	/	-5	-1
COCCNC(=O)C(=O)NNS(=O)(=O)c1ccc(Cl)cc1	3	3.8	-18	4511	2	1	1
C/C(=N\NC(=O)c1cccc(S(=O)(=O)N2CCCC2)c1)c1ccc(C)cc1	/	/	-9	5435	-10	/	/
C/C(=N\NC(=O)c1ccccc1)c1ccc(NC(=O)c2cccs2)cc1	/	/	-44	8109	10	/	/
CCOC(=O)C1=C(COC(=O)/C=C/c2ccc(C)o2)NC(=O)NC1C (stereo not drawn)	-8	3.6	0	9282	/	-9	7
O=C(Nc1ccccc1N1CCN(C(=O)c2ccc(Cl)cc2)CC1)c1cccnc1	-10	-2.1	-14	5043	-5	-4	1
COC(=O)C1=C(c2ccc(S(C)(=O)=O)cc2)CC2CCC1N2C(=O)N1CCC(C)CC1 (stereo not drawn)	5	2.0	/	/	/	6	2
CC1(C(=O)N(CC(=O)NC2CCCC2)Cc2ccco2)CC(=O)N=C2C=CC=CN21 (stereo not drawn)	2	1.6	-12	11318	4	4	8
COc1cc2c(cc1OC)CN(Cc1cc(=O)oc3cc(C)c(Cl)cc13)CC2	0	8.6	-25	2822	-13	5	8
O=C(O)CN(c1cccc(C(F)(F)F)c1)S(=O)(=O)c1ccccc1	14	13	-21	4398	1	9	2
COc1ccc(NC(=O)NC(C)c2ccc3c(c2)OCO3)cc1OC (stereo not drawn)	9	3.6	-19	4589	-3	6	0
O=c1c2cnn(-c3ccc(F)cc3)c2ncn1Cc1ccccn1	5	6.0	/	/	-4	-66	15
CCOc1ccccc1C(=O)NCCCn1ccnc1	-8	-2.7	-11	10086	2	6	3
COc1ccccc1CNC(=O)C1CCN(S(=O)(=O)c2ccc(N3CCCC3=O)cc2)CC1	7	3.1	-5	4775	-9	5	1
Oc1c(C=NCc2ccncc2)sc2ccccc12	2	3.4	/	/	2	11	6
CNC(=S)NC(CC(=O)OC)c1ccc2c(c1)OCO2 (stereo not drawn)	2	-3.2	-11	3693	20	-2	-1
CCN=C(NC#N)SCc1c(F)cccc1Cl	-1	0.5	-6	2365	-6	8	5
Cc1cc(=O)c2cc3nc(-c4cccnc4)oc3c(Br)c2o1	4	3.9	/	/	-3	0	-1
COc1cccc(C2C(=O)N(C3CCCCC3)CC(=O)N2Cc2ccc(F)cc2)c1 (stereo not drawn)	1	1.1	-19	8042	4	1	1
COc1cc(/C=N/NC(=O)c2cccc([N+](=O)[O-])c2)cc(OC)c1O	/	/	-22	2535	-6	/	/
CCC(C)NC(=O)[C@@H]1CCCN1C(=O)C1CCN(S(=O)(=O)c2ccc(C)cc2)CC1 (stereo partly drawn)	-2	-2.6	-20	6369	-7	8	1

Individual results from above:
COC(=O)C1=C(c2ccc(S(C)(=O)=O)cc2)CC2CCC1N2C(=O)N1CCC(C)CC1 (stereo not drawn) @ Mtb hypoxia inh growth: 2
C/C(=N\NC(=O)c1cccc(S(=O)(=O)N2CCCC2)c1)c1ccc(C)cc1 @ PrP 5UTR inh: -9
COc1cc2c(cc1OC)CN(Cc1cc(=O)oc3cc(C)c(Cl)cc13)CC2 @ Bead autofluor: 2822
COCCNC(=O)C(=O)NNS(=O)(=O)c1ccc(Cl)cc1 @ ugtP null kill: 3
Oc1c(C=NCc2ccncc2)sc2ccccc12 @ Sa RN4220 lethal: 3.4
O=c1c2cnn(-c3ccc(F)cc3)c2ncn1Cc1ccccn1 @ Mtb hypoxia inh: -66
COc1ccc(S(=O)(=O)Cc2ccc(C(=O)N3CC(C)CC(C)C3)o2)cc1 (stereo not drawn) @ PrP 5UTR inh: -9

Assay outcomes deposited in PubChem BioAssay by several laboratories.
